High-throughput results as filed in PubChem BioAssay.
StopGo FLuc: lowers the firefly signal of an FMDV 2A StopGo reporter; HEK cells with a luciferase reporter of 2A StopGo recoding; Potency, µM (top dose mostly 57.5 µM), for inactives: at the top dose signal change, negative = less light; 0.23% of 120,000 active; AID 1745856; active = well fitted falling curve with a large enough effect; inconclusive = small, poorly fitted or top-dose-only effect; inactive = no such curve, though single readings can be large or run the other way; also: nearly all actives have a fitted effect of over 60% in size; overnight with compound
StopGo RLuc: lowers the Renilla signal of an FMDV 2A StopGo reporter | HEK cells with a luciferase reporter of 2A StopGo recoding | Potency, µM (series often up to 57.5 µM), inactives show at the highest dose signal change, negative = less light | 0.32% of 120,000 active | AID 1745857; active means well fitted falling curve with a large enough effect; inconclusive means small, poorly fitted or top-dose-only effect; inactive means no such curve, though single readings can be large or run the other way; also: nearly all actives have a fitted effect of over 55% in size; overnight with compound
Active calls of the source: *; ? = inconclusive; [ ] = remark or other dose. % is scaled to controls: 0 for no effect and ±100 for the full control effect; potency is read from the fitted curve at half-maximal effect. The list is partial; count on the stated rates, not on these rows.

SMILES,StopGo RLuc,StopGo FLuc
O=C(CCn1c(=O)c2cccn2c2cccnc21)N1CCN(c2cccc(Cl)c2)CC1,-7%,9%
O=C(COC(=O)c1ccccc1-c1ccccc1)c1ccccc1,61%[activator],15%
COc1ccc(N2CCN(C(=O)c3cc(NS(=O)(=O)c4ccc(F)cc4)ccn3)CC2)cc1,-10%,-6%
COc1ccc(C(=O)CCC(=O)Nc2ccc(C)c(Cl)c2)cc1,2%,16%
O=C(C1=C(c2ccccc2)SCCO1)N(Cc1cccc2ccccc12)C1CCS(=O)(=O)C1 (stereo not given),17%,-11%
CN(C1CCCCC1)S(=O)(=O)c1ccc2c(c1)c(=O)c(C(=O)NCCc1ccc(Cl)cc1)cn2C,-4%,-7%
Cc1ccc2c(CN3CCN(C(=O)c4cccc(F)c4)CC3)cc(=O)oc2c1,1%,17%
O=C(CCNC(=O)c1ccsc1)Nc1ccc(N2CCCC2)nc1,1%,22%
Cc1cc(C(=O)NCc2cccnc2)c2ccccc2n1,11%,22%
Cc1ccc(C(=O)c2cn(Cc3cccc(F)c3)c3nc(C)ccc3c2=O)cc1,17%,0%
Cc1ccc(-n2c(=O)c3c(C)c(C)sc3n(Cc3ccc(F)cc3Cl)c2=O)cc1C,2%,-8%
O=C(O)CCc1ccc(-c2ccccc2)n1-c1cccc(Br)c1,6%,14%
COc1ccc(NC(=O)CSc2ncc(-c3ccc(F)cc3)o2)cc1,-16%,6%
COc1cc(/C=C(/C#N)C(=O)Nc2cccc(C(F)(F)F)c2)ccc1OC(F)F,51%[activator],30%[activator]
Cc1ccc2oc(=O)c3cc(C(=O)Nc4ccc(C)c(F)c4)sc3c2c1,-9%,-26%
O=C(Nc1ccc(Cl)cc1)c1cc2nc(-c3ccc4c(c3)OCO4)cc(C(F)(F)F)n2n1,-5%,-11%
CCOc1ccc(S(=O)(=O)NCCc2sc3nc(-c4ccc(F)cc4)nn3c2C)cc1,34%[activator],20%
O=Cc1cccn1-c1ccccc1Br,-9%,2%
COc1ccc(CCNC(=O)c2csc3c2CCCCC3)c(OC)c1,32%[activator],-5%
Cc1cccc(NC(=O)Cn2c(=O)n(CCCCCC(=O)NCc3ccc4c(c3)OCO4)c(=O)c3sccc32)c1,-5%,35%[activator]

Structures listed so far that have a thiophene ring, fused or not, in the order listed:
SMILES,StopGo RLuc,StopGo FLuc
O=C(CCNC(=O)c1ccsc1)Nc1ccc(N2CCCC2)nc1,1%,22%
Cc1ccc(-n2c(=O)c3c(C)c(C)sc3n(Cc3ccc(F)cc3Cl)c2=O)cc1C,2%,-8%
Cc1ccc2oc(=O)c3cc(C(=O)Nc4ccc(C)c(F)c4)sc3c2c1,-9%,-26%
COc1ccc(CCNC(=O)c2csc3c2CCCCC3)c(OC)c1,32%[activator],-5%
Cc1cccc(NC(=O)Cn2c(=O)n(CCCCCC(=O)NCc3ccc4c(c3)OCO4)c(=O)c3sccc32)c1,-5%,35%[activator]

Further records.
SMILES,StopGo RLuc,StopGo FLuc
CN(C(=O)c1cccc(N)c1)C1CCCCC1,6%,0%
CCSc1ncc(Cl)c(C(=O)Nc2ccc(S(=O)(=O)N(C)c3ccccc3)cc2)n1,16%,-14%
COc1ccc(COC(=O)c2[nH]c3c(c2C)C(=O)CC(c2ccc(OC)c(OC)c2)C3)cc1 (stereo not given),?,?
Cc1cccc(-c2noc(CN(C(=O)c3ccc(C)c(C)c3)C(C)C)n2)c1,-5%,-13%
COC(=O)c1ccc(/C=C(/C#N)C(=O)c2c(Cl)cccc2Cl)cc1,0%,0%
O=C(O)c1cccc(CSc2ccc(Cl)cc2Cl)c1,15%,0%
CC(C)CCNC(=O)CCNC(=O)NCc1nc2c(cnn2-c2ccccc2)c(=O)[nH]1,3%,-15%
Cc1ccc(NC(=O)Cc2n[nH]c(=O)c3ccccc23)c(O)c1,8%,34%[activator]
CC(NC(=O)CCc1cn(Cc2ccccc2Cl)c2ccccc12)c1ccccc1 (stereo not given),5%,-8%
COc1ccccc1-c1noc(CCCC(=O)Nc2cc(C)ccc2C)n1,-7%,3%
Cc1ccc(OCCN)c(C)c1,-2%,11%
CN(CC(=O)Nc1ccc(Cl)cc1)CC(=O)N(C)C1(C#N)CCCCC1,6%,-14%
CNC(=O)c1ccc(/C=C/C(=O)N(Cc2ccsc2)C2CC2)cc1,56%[activator],21%
O=C1/C(=C/c2cccc(Br)c2)Cc2ccccc21,0%,42%[activator]
Cc1ccccc1-c1nc(CS(=O)CC(=O)NCCc2ccc(Cl)cc2)c(C)o1 (stereo not given),37%[activator],16%
Cn1nc(C(=O)OCC(=O)c2c[nH]c3ccccc23)c2ccccc2c1=O,37%[activator],23%
Cc1cnc(NC(=O)CCc2ncc(-c3ccc(F)cc3)o2)s1,6%,16%
Cc1oc2cc(OCC(=O)N[C@@H](C(=O)O)C(C)C)ccc2c(=O)c1-c1ccc(Cl)cc1,-7%,-9%
Cc1ccc(-c2nnn(CC(=O)c3c[nH]c4ccccc34)n2)cc1,-11%,-12%
CCOC(=O)N1CCC(NC(=O)c2ccc3c(c2)N(Cc2ccc(Cl)cc2)C(=O)c2ccccc2S3(=O)=O)CC1,29%,-9%
COc1ccc(/C=C/c2ccc3cccc(O)c3n2)cc1OC,23%,276%[activator]
O=C(COC(=O)c1cc2ccccc2oc1=O)NC1CCCCCC1,21%,12%
NC[C@H](O)c1ccc(O)c(O)c1,-9%,-17%
COCCN1CCCN(C(=O)c2cc(-c3ccc(F)cc3)n[nH]2)CC1,-25%,-10%
COc1ccc(-n2nnc3c(=O)n(CC(=O)N4CCC(C)CC4)cnc32)cc1,-1%,-2%
COc1cc(OC)c(NS(=O)(=O)c2cc(C(=O)N3CCCC(C)C3)ccc2C)cc1Cl (stereo not given),223%[activator],-4%
COc1cc2ccccc2cc1C(=O)N1CCN(CC(=O)Nc2ccc(F)cc2)CC1,-10%,9%
CCCN(C(=O)COc1ccc2c(C)cc(=O)oc2c1C)C1CCS(=O)(=O)C1 (stereo not given),0%,2%
CC(C)(C)NC(=O)NC(=O)CSc1nnc(-c2ccccc2)c(-c2ccccc2)n1,?,?
Cn1c(=O)[nH]c(=O)c2c1nc(N1CCN(Cc3ccccc3F)CC1)n2CCCc1ccccc1,17%,4%
CCOc1ccc(S(=O)(=O)NCc2cccn2Cc2cccc(C)c2)cc1,343%[activator],62%[activator]
CCc1ccc(Nc2ncnc3c2cnn3-c2cc(Cl)ccc2C)cc1,-8%,2%
Cc1cccn2c(=O)c(C(=O)NCCc3ccc(Cl)cc3)cnc12,-13%,100%[activator]
COc1ccc(/C=C/C(=O)Oc2ccc3oc4ccccc4c3c2)cc1OC,20%,67%[activator]
COc1ccc2c(CNCCc3cccs3)c(C(=O)O)n(Cc3cccc(F)c3)c2c1,124%[activator],-21%
CCC(=O)C1=C(c2ccc(C)cc2)N(C(=O)CC)n2c(nnc2C2CCCCC2)S1,-11%,-24%
C=CCOC/C=C/C#CCN(CC=C)Cc1ccc(OC)cc1OC,3%,-1%
c1ccc(-c2nc(N3CCOCC3)nc3ccccc23)cc1,-3%,1%
CCc1ccc(NC(=O)CSc2nc3nccnc3c(=O)n2CCc2ccccc2)cc1,-11%,2%
COC(=O)c1ccc(NC(=O)CCc2c(C)nn(-c3ccc(N4CCCCC4)nn3)c2C)cc1,-9%,87%[activator]
COc1cccc(NC(=O)CSCn2nnc3c(=O)[nH]c(Cc4ccc(F)cc4)nc32)c1,-4%,-6%
CCOc1cccc(C(=O)Oc2ccccc2)c1,2%,21%
CCOc1ccc(S(=O)(=O)N(CC)CC)cc1NC(=O)C1CCN(c2ccc(C#N)cn2)CC1,15%,-1%
Cc1ccc(S(=O)(=O)N2CCN(Cc3ccc4c(c3)OCO4)CC2)cc1,-25%,-16%
Cc1ccc(SCc2nc3scc(C)n3c2Br)cc1,84%[activator],250%[activator]
CCCCCNC(=O)Cc1cccs1,1%,6%
COC(=O)c1ccc(C2NC(=S)NC(C)=C2C(=O)OC(C)C)cc1 (stereo not given),33%[activator],38%[activator]
CCCCn1nc(C(=O)Nc2cccc(Cl)c2)c2ccccc2c1=O,-3%,-2%
CCc1ccccc1NC(=O)C1CCN(c2nc3ccccc3[nH]2)CC1,-20%,-19%
O=C(Nc1ccc2nc(SCC(=O)N3CCc4ccccc43)sc2c1)c1ccccc1F,-16%,-1%
CCc1nn(CC(=O)NCc2ccc(C)cc2)c(=O)c2cc3occc3n12,10%,21%
Cc1cc2oc(C(=O)NCC(c3ccco3)N3CCCC3)cc(=O)c2cc1Cl (stereo not given),-11%,-13%
Cc1ccc(Cl)cc1NC(=O)c1cccc(NC(=O)N2CCSc3ncccc32)c1,?,-16%
COC(=O)C1=C(C)N(c2ccc3c(c2)OCO3)C(=O)NC1c1cc(Br)ccc1OC (stereo not given),3%,7%
Cc1ccc(-c2ccccc2)n1-c1cccnc1,5%,36%[activator]
COC(=O)CSc1nc2ccsc2c(=O)n1Cc1ccco1,-4%,4%
CCn1c(=O)n(CC(=O)Nc2ccccc2C)c2ccccc21,-10%,0%
Cc1ccc(C(=O)NN=C(Cc2ccccc2)Cc2ccccc2)c(C)c1,26%,180%[activator]
COc1ccc2cc(-c3nc(-c4ccccc4Cl)no3)c(=O)oc2c1,14%,24%
Cc1nn2c(=O)cc(COC(=O)c3cccc(NC(=O)CCc4ccccc4)c3)nc2s1,6%,9%

Next part
SMILES,StopGo RLuc,StopGo FLuc
N#Cc1nc(COc2ccc(Br)cc2)oc1NCc1ccc2c(c1)OCO2,?,?
O=C1CC(c2ccccc2)Cc2[nH]c(=O)c(C(=O)Nc3cccc(F)c3)cc21 (stereo not given),30%[activator],35%[activator]
O=C(O)c1ccc(C(c2c[nH]c3ccccc23)c2c[nH]c3ccccc23)cc1,-14%,0%
CC(C)CCn1nc(C(=O)Nc2ccc(Cl)cc2)c2ccccc2c1=O,5%,2%
C=CCN1CCN(C(=O)Cc2ccc(Br)cc2)CC1,19%,171%[activator]
CCOC(=O)CNC(=O)CSc1cn(CC(=O)N(CC)CC)c2ccccc12,-6%,3%
Cc1ccc(S(=O)(=O)C(CNC(=O)c2ccccc2F)c2cccs2)cc1 (stereo not given),101%[activator],22%
CN(C)CCCNC(=O)c1cc(-c2ccc(-c3ccccc3)cc2)nc2ccccc12,8.9µM*,99%[activator]
COc1cc2c(cc1OC)CN(Cc1cc(=O)c(OCc3cccc(F)c3)co1)CC2,-5%,2%
CCc1cccc(C)c1NC(=O)Cn1cc2c(n1)CCCCC2,-7%,-4%
COc1ccc(OC(=O)CSc2nnc(-c3ccc(F)cc3)o2)cc1,-5%,-10%
Cn1cc(/C=C/C(=O)N2CCCC(C(F)(F)F)C2)c(=O)n(C)c1=O (stereo not given),1%,5%
COc1ccc(Cl)cc1NC(=O)CN1C(=O)CSc2ccc(S(=O)(=O)N3CCCC3)cc21,45%[activator],-7%
CC(C)(O)C#Cc1ccc(C(=O)NCc2ccccc2)cc1,51%[activator],8%
Cn1c(=O)c2c(-c3ccc(F)cc3)n(CCCO)cc2n(C)c1=O,12%,4%
C=CCNc1nc(C(=O)OCC(=O)c2ccccc2)cs1,3%,141%[activator]
CCOC(=O)c1c(SCC(=O)Nc2cccc(C)c2C)nc(=O)[nH]c1C,-9%,-5%
CCOC(=O)c1c(C)n(-c2ccccc2)c2ccc(OC(=O)c3ccccc3Cl)cc12,3%,-17%
FC(F)(F)c1ccc(C=Nc2cccc3ccccc23)cc1,7%,13%
O=S(=O)(Nc1nc2ccccc2nc1Nc1ccccc1Br)c1cccs1,-16%,-8%
O=C(C1CC1)N(Cc1ccc2c(c1)CN(S(=O)(=O)c1ccccc1)CCO2)c1ccccc1,-21%,?
Cc1ccc(NC(=O)C2CCCN(S(=O)(=O)c3ccc4c(c3)CCCC(=O)N4)C2)cc1N(C)C (stereo not given),-22%,-32%
Cc1ccc(C(NC(=O)CCl)C2CC2)cc1 (stereo not given),?,?
COc1ccc2c(C)c(CCC(=O)Nc3cccc(C(C)=O)c3)c(=O)oc2c1C,-5%,5%
CSCc1ccc(C(=O)Nc2ccccc2F)o1,-7%,167%[activator]
CCc1ccccc1NC(=O)CN(C)C(=O)COc1ccc2oc3c(c2c1)CCCC3,-10%,17%
COc1cccc(C(=O)NCc2nc(-c3ccccc3)no2)c1OC,0%,19%
Cc1cc(C)c2cc(C(=O)N3CCC(C(=O)NCc4ccccc4)CC3)[nH]c2c1C,21%,14%
Cc1nn2c(-c3ccco3)ccnc2c1-c1ccc(Cl)cc1,-9%,26%
Cn1c(CCc2cccc(NC(=O)c3ccc(C#N)cc3)c2)nc2ccccc21,?,?
COc1ccc(CC(=O)N2N=C(c3ccc(F)cc3)CC2(O)C(F)(F)F)cc1 (stereo not given),-4%,-7%
